Screens deposited in PubChem by several laboratories.
B2AR ag = activates human beta-2 adrenergic receptor causing internalization. response, % (concentration not given with the values). 0.43% of 340,000 active. Am2.2-beta2AR cells, FAP receptor internalization, flow cytometry; reference of the scale not given here;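 active = response above a set limit, near 3 SD of response in nonfluorescent compounds, cut at about 42% in these data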;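 note: stock transfer was 100 nL into about 11 µL; a reference agonist was the positive control; negative values mostly stem from fluorescent compounds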
HNF4A DNA FP = change in binding of human HNF4 alpha to DNA; P41235; HNF4a-FITC DNA binding, fluorescence polarization, 1 h; activity change, % at 10 µM; 0.3% of 360,000 active; in the data active = activity change above about 30%, passing the limit was not always enough;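 note: controls were the assay level and a saturating level of protein; the project sought stronger binding though the title names inhibitors; some compounds called inactive have numbers as strong as hits; positive values seem to mean higher polarization but the record does not say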
Target sequence (P41235 whole entry, looked up): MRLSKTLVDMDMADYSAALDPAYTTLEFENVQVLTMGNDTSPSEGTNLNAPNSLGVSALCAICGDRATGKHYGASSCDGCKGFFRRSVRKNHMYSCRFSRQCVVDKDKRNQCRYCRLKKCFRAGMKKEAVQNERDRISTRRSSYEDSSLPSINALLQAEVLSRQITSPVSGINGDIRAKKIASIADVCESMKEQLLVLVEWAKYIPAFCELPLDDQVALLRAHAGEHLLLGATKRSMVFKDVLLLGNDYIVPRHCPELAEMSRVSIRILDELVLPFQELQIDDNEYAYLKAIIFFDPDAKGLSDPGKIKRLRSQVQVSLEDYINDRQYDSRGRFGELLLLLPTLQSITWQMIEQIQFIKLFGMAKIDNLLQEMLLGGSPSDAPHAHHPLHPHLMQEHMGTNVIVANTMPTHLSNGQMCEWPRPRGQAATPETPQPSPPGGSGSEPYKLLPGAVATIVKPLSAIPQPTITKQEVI
Bfl-1 A1 inh = inhibitors of the anti-apoptotic protein A1, read as caspase activation; MEF A1-2A-BIM cells, Caspase-Glo 3/7 luminescence, 3 h; percent of clofoctol response, vehicle zero; caspase activation, % (concentration not given with the values); 0.066% of 330,000 active;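 active = over half of replicate activation scores above 10%, or exactly half above 10 with the replicate mean above 10; inconclusive = replicate mean below 10 yet half the replicates above 10; inactive = over half of replicates below 10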;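 note: wells of about 30 µL received 50 nL stock; many hits fall short of the cut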
Ecoli growth = blocks Escherichia coli growth; OD600, 23 h; stronger effect = lower value; OD600 absorbance (no concentration beside the values); 0.21% of 330,000 active; AID 1053175;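 active = OD600 absorbance below the run mean of sample wells minus 3.6 SD, in any replicate, cut at about 0.56 in these data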;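 note: stock transfer was 300 nL into about 60 µL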
UCH37 inh = inhibitors of human deubiquitinating enzyme UCH37 | purified proteasome/UCH37, Ub-AMC cleavage fluorescence | inhibition, % (no concentration beside the values) | 0.33% of 330,000 active | AID 588478;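 active = mean of two replicates above 20%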;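 note: 0% = compound-free wells with enzyme and 100% = wells lacking proteasome; stock transfer was 100 nL into about 20 µL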
Target sequence (Q9Y5K5 whole entry, looked up): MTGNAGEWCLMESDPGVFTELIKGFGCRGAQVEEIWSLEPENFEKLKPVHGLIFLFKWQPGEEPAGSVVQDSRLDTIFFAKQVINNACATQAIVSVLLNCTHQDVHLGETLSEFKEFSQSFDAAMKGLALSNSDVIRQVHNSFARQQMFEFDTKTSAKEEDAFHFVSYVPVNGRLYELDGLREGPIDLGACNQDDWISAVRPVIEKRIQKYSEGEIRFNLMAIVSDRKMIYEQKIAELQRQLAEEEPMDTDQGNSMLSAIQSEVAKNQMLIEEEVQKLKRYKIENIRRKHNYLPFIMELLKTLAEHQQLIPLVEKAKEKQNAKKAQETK
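Material: Human UCH37 enzyme supplied as purified proteasome complex | Schedule: 30 min preincubation with enzyme, 25 min cleavage at room temperature | Detection: AMC fluorescence 355/460 nm | Measure: % inhibition of Ub-AMC cleavage fluorescence | Controls: Wells without proteasome as full block, compound-free enzyme plus substrate as uninhibited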
LANA-H2B inh = blocks KSHV LANA binding to histone H2A/H2B; Q9QR71; cell-free LANA-H2A/H2B peptide, fluorescence polarization; inhibition, % (test concentration not listed); 0.6% of 320,000 active; in the data active = inhibition mostly above about 10%, no sharp cut-off; inactive = mostly below about 6.7%;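 note: stock transfer was 7.5 nL into about 10 µL; 0% = median of vehicle wells and 100% = median of positive control wells; one replicate is shown; the record names a cut of 25% in any replicate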
Vif TR-FRET = inhibitors of Vif binding to APOBEC3G peptide, primary screen, biochemical, TR-FRET, GST-Vif 1-94, biotin-A3G peptide, dose response retest (AID 1117319); TR-FRET GST-Vif / biotin-A3G peptide binding; higher % means a stronger effect; test concentration not given here; strong numbers were not always called active; one-dose inhibition, %; IC50 in µM for titrated hits; 0.57% of 260,000 active;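 active = above the screen mean plus three standard deviations and confirmed in dose response; inconclusive = results disagree or hit not tested in dose response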;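 note: Vif residues 1-94 fused to GST binding biotinylated APOBEC3G peptide 110-148; 0% = full assay without inhibitor and 100% = GST in place of GST-Vif; retest series ran down from 100 µM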
An asterisk follows results filed as active; u = inconclusive; x = not tested or not shown.

SMILES	B2AR ag	HNF4A DNA FP	Bfl-1 A1 inh	Ecoli growth	UCH37 inh	LANA-H2B inh	Vif TR-FRET
Cc1ccc(N2C(=O)c3ccccc3NC2C(C)Cc2ccc3c(c2)OCO3)cc1 (stereo unspecified)	11.7	1.9	-0.4	0.748	-100.0	-11.5	19.8%
CCc1ccc(NC(=O)CS(=O)CC(=O)NC(C)CCc2ccco2)cc1 (stereo unspecified)	1.2	2.7	1.2	0.757	-0.8	2.4	6.5%
Cc1ccc(CNC(=O)CN(C(=O)N2CCN(C)CC2)S(=O)(=O)c2ccc(C)cc2)cc1	2.6	1.2	0.2	0.666	-0.3	-1.1	0.6%
COc1ccccc1CNC(=O)c1cc(-c2ccncc2)nc2c(Cl)cccc12	13.9	1.8	-0.1	0.708	2.7	-8.6	x
COc1ccc(OC)c(C(=O)CSc2nnc(Cc3cccs3)n2CCc2ccccc2)c1	-1.2	4.2	1.3	0.721	2.6	-2.3	3.1%
COc1cc2cc(Br)cc(Br)c2nc1C	1.3	4.0	-0.2	0.725	0.1	6.4	-48.1%
O=C(CCc1ccccc1)Nc1ccc(S(=O)(=O)NC2=NCCCCC2)cc1	1.8	-1.1	0.5	0.657	0.0	-2.8	x
Nc1nc(SCC(=O)Nc2cc(-c3ccccc3)nn2-c2ccccc2)n[nH]1	-12.8	3.0	-1.3	0.699	-4.3	0.1	4.5%
Cc1ccc(NC(=O)NCc2cccn2C)cc1C	4.4	1.9	-1.0	0.701	-0.4	-4.0	-0.1%
CC(C)c1ccc(-c2cc(C(=O)N3CCOCC3)c3cc(Br)ccc3n2)cc1	14.2	5.7	0.9	0.73	1.8	-1.7	x
CC(=O)NC1=C(NC2CCS(=O)(=O)C2)C(=O)c2ccccc2C1=O (stereo unspecified)	-18.7	-1.4	-0.2	0.658	28.1*	3.5	25.5%
Cc1ccc(C(=O)NCCNC(=O)c2ccco2)cn1	-4.5	0.1	-0.1	0.646	0.3	5.2	x
C/C(=N\NC(=O)c1nnn(-c2nonc2N)c1CN1CCc2ccccc21)c1ccccc1O	-9.5	4.6	0.5	x	x	-0.2	x
O=C(Nc1cc(C(F)(F)F)ccc1N1CCOCC1)C1CC1	-12.8	-1.9	0.6	0.693	0.7	5.5	-21.0%
O=C(O)C1(P(=O)(c2ccccc2)c2ccccc2)CCCC1	-7.4	-5.0	0.4	0.681	0.3	-12.2	9.7%
COC(=O)Cn1c(CN(Cc2ccccc2)Cc2ccccc2)nc2c1c(=O)[nH]c(=O)n2C	34.0	4.1	-1.0	0.681	2.7	1.7	20.3%
COc1ccc(-c2ccc(=O)n(CC(=O)NC3CCc4ccccc43)n2)cc1OC (stereo unspecified)	-4.2	3.1	0.3	0.708	2.8	-1.7	-16.1%
COc1ccc(-c2ccccc2)cc1NCc1ccccc1C	7.8	3.7	0.8	0.663	-4.5	9.0	x
O=C(c1ccc(OC2CCN(CCc3ccccc3)CC2)cc1)N1CCCCC1CCCO (stereo unspecified)	-7.0	-1.2	0.2	0.72	2.9	4.4	-7.5%
Cc1ccc(C(=O)Cn2cc([N+](=O)[O-])nc2C)cc1	1.2	3.5	0.9	0.691	5.7	-21.9	-11.1%
O=S(=O)(N1CCCCCC1)N1CCN(S(=O)(=O)N2CCOCC2)CC1	-5.2	-1.6	0.4	0.735	1.6	7.5	-2.1%
COc1ccc(C(=O)N2CCC(N3CCN(c4ccccc4)CC3)CC2)cc1OC	-3.4	2.6	-0.4	0.652	3.7	-2.3	-1.8%
CSc1nc(N)n2nc(C(C)(C)C)cc2n1	-3.0	-2.3	-0.5	0.691	2.2	3.1	u
CCOC(=O)N1CCC(Nc2ccc(N3C(=O)C4CCCCC4C3=O)cc2[N+](=O)[O-])CC1 (stereo unspecified)	-9.9	-1.5	0.2	0.653	3.6	-5.2	x
COc1ccc(OCCCC(=O)Nc2ccc3c(c2)OCO3)cc1	-1.1	7.9	0.2	0.698	-0.1	7.9	1.4%
Nc1ccc(Nc2ccccc2)c(Cl)c1	2.3	1.3	0.2	0.624	1.3	-4.3	u
CSCCC(NC(=O)c1ccco1)C(=O)Nc1cc(C)ccn1 (stereo unspecified)	-0.7	-0.4	0.1	0.693	0.3	x	x
CC(=O)c1cccc(NC(=O)c2ccc(N(Cc3ccc(C)cc3)S(C)(=O)=O)cc2)c1	8.2	-0.1	x	0.707	2.8	x	4.6%
CCOc1ccc(-c2nc(C#N)c(NCc3ccc4c(c3)OCO4)o2)cc1	10.1	6.4	-0.3	0.74	-11.4	-0.7	2.3%
CCOc1ccc(Cc2noc3c2C(=O)CCC3)cc1OCC	6.2	-2.4	-0.3	0.727	-0.5	-1.9	5.8%
CCc1ccc(C2C(C#N)=C(N)SC(N)=C2C#N)s1	-1.2	121.8	-0.1	0.639	11.6	-7.0	1.1%
COc1cc(C(=O)N/N=C/c2sc(=O)n(-c3ccccc3)c2Cl)cc(OC)c1OC	5.0	10.6	0.0	x	x	-6.4	3.4%
CCCc1nnc(NC(=O)CCC(=O)N2CCCCC2CC)s1 (stereo unspecified)	-4.3	1.4	-0.3	0.737	0.1	2.2	-6.5%
COCCNC(=O)CN(c1cc(Cl)ccc1OC)S(=O)(=O)c1ccc(C)c([N+](=O)[O-])c1	-4.1	-1.3	-0.3	0.678	4.0	-0.6	-1.9%
Cc1cc(C)c(C(=O)Nn2c(C)nc3ccccc3c2=O)cc1C	-11.8	9.7	-0.3	0.651	5.0	-2.0	-5.8%
CN(C)Cc1c(C(=O)N/N=C/c2ccccc2OCc2c(F)cccc2Cl)nnn1-c1nonc1N	8.2	2.9	0.1	x	x	4.6	x
COc1cccc(C(CNc2ccc(S(=O)(=O)N3CCN(C)CC3)cc2[N+](=O)[O-])N(C)C)c1 (stereo unspecified)	-1.8	3.0	x	0.704	2.4	x	-2.9%
O=C(c1ccccc1Oc1ccc([N+](=O)[O-])cc1)N1CCOCC1	-0.8	0.8	1.8	0.69	3.3	-4.2	x
Cc1ccccc1-c1nc(CN2CCC(C(=O)O)CC2)c(C)o1	1.8	2.5	0.6	0.705	3.0	1.2	14.2%
COc1ccc(/C(C)=N/NC(=O)c2ccc(CSc3cccc4cccnc34)cc2)cc1OC	25.1	-0.5	-0.9	x	x	-0.9	1.1%
CCC(=O)N1c2ccc(S(=O)(=O)CCC(=O)Nc3ccc(OC)cc3OC)cc2CC1C (stereo unspecified)	-10.3	3.8	-0.9	0.709	4.2	-5.3	x
COC(=O)[C@H](C)NC(=O)NC1CCCc2ccccc21 (stereo partly specified)	1.8	-0.9	0.1	0.728	0.1	6.8	7.6%
CCc1ccc(N2C(=O)C(Cl)=C(N3CCCCCC3)C2=O)cc1	-6.9	4.5	0.0	0.694	4.4	-4.8	-4.2%
CCC1C(=O)C[C@H]2CCN3C(=O)CCCC1C23 (stereo partly specified)	-0.1	0.7	x	0.71	-2.3	x	8.6%
Cc1cccc(C)c1NC(=O)NCCCN1CCN(c2ccccc2)CC1	-4.3	0.0	0.1	0.674	4.2	-6.7	2.4%
Fc1ccccc1SCc1nnc(-c2ccccc2Br)o1	-0.2	-3.5	-0.4	0.67	31.6*	-2.0	7.7%
COc1ccc(OC)c(S(=O)(=O)Nc2c(F)cccc2F)c1	0.8	1.4	0.8	0.679	2.4	-1.5	-3.9%
CCCCn1c(-c2ccco2)nc2ccccc2c1=O	-9.5	-0.7	-0.6	0.744	2.7	5.7	0.0%
COc1ccc(CC(=O)Nc2ccc(-c3nnc(-c4ccccc4)o3)cc2)cc1	-2.5	-1.0	-0.5	0.785	-9.3	0.6	-1.9%
CCOc1cccc(OCCCCN2CCCCC2)c1	5.0	1.2	-0.2	0.67	-0.8	-1.3	-2.4%
Cc1ccc(S(=O)(=O)N2CCN(C(=O)c3cccs3)CC2)cc1C	-0.8	4.5	0.7	0.685	3.1	4.9	1.0%
CCC(C)[C@@H](CN)NCC1(c2ccccc2)CC1 (stereo partly specified)	0.1	-2.4	0.6	x	1.1	-1.7	x
Cc1ccc(S(=O)(=O)C(C#N)c2nc3ccccc3nc2OC(C)C)cc1 (stereo unspecified)	2.6	4.0	0.2	0.712	-12.1	9.0	20.9%
Nc1nnc(CC(=O)N/N=C/c2ccc([N+](=O)[O-])cc2)s1	-2.2	-1.3	-0.1	x	x	-6.9	12.9%
CC(C)c1ccc(NC2CCCN(C(=O)CCN3CCCCO3)C2)cc1 (stereo unspecified)	-6.4	0.5	-0.2	0.711	0.9	-13.9	-0.7%
Cc1ccc(NS(=O)(=O)c2ccc(NC(=O)c3ccccc3C(=O)O)cc2)cc1C	-2.5	0.0	0.5	0.686	2.0	3.2	x
Cc1cccc(N2CN=c3s/c(=C\c4ccncc4)c(=O)n3C2)c1	-2.5	4.9	x	x	x	x	-4.4%
COC(=O)c1c(C(=O)OC)c(-c2ccc(OC)cc2)n2c1CS(=O)(=O)C2	-0.5	0.9	0.2	0.651	-0.7	-1.7	1.5%
CN(C)C(CNC(=O)c1ccc(OCc2cn3ccccc3n2)cc1)c1ccco1 (stereo unspecified)	-5.0	-15.7	-0.8	0.678	-1.4	1.1	5.3%
CN(C(=O)CN1C(=O)C2C3CC(C(Br)C3Br)C2C1=O)C1CCCCC1 (stereo unspecified)	2.1	-1.3	-1.0	0.694	1.4	5.4	x

Ordered by SMILES length (highest first): part of the list above
SMILES	B2AR ag	HNF4A DNA FP	Bfl-1 A1 inh	Ecoli growth	UCH37 inh	LANA-H2B inh	Vif TR-FRET
COc1ccc(C(=O)N2CCC(N3CCN(c4ccccc4)CC3)CC2)cc1OC	-3.4	2.6	-0.4	0.652	3.7	-2.3	-1.8%
Cc1cc(C)c(C(=O)Nn2c(C)nc3ccccc3c2=O)cc1C	-11.8	9.7	-0.3	0.651	5.0	-2.0	-5.8%
CCCCn1c(-c2ccco2)nc2ccccc2c1=O	-9.5	-0.7	-0.6	0.744	2.7	5.7	0.0%

The results go on:
SMILES	B2AR ag	HNF4A DNA FP	Bfl-1 A1 inh	Ecoli growth	UCH37 inh	LANA-H2B inh	Vif TR-FRET
OCCNc1nc(Nc2ccccc2C(F)(F)F)nc(N2CCCC2)n1	-4.9	2.8	0.9	0.628	5.2	5.6	x
O=C(O)CC(Cc1ccccc1)c1ccc2c(c1)OCO2 (stereo unspecified)	-2.6	-2.7	1.3	0.7	4.8	-3.1	22.9%
CC(=O)C1=C(C)Nc2ncnn2C1c1ccc(Cl)cc1 (stereo unspecified)	6.2	2.1	-1.1	0.712	2.9	-4.2	u
CCN(CC)S(=O)(=O)c1cccc(C(=O)N/N=C/c2ccccc2OCC(=O)O)c1	2.0	0.6	-0.5	x	x	1.4	u
O=C(CN(Cc1ccco1)C(=O)c1ccccc1)Nc1ccc(Cl)c(Cl)c1	-1.3	1.8	0.5	0.666	2.0	0.8	u
CCN(CC)C(=O)CCn1nc(-c2ccc(C)cc2)c2ccccc2c1=O	-13.0	3.2	0.7	0.679	1.2	-4.6	-1.5%
CCOc1cc(NC(=O)C2CCCO2)c(OCC)cc1NC(C)=O (stereo unspecified)	18.4	4.2	0.0	0.662	2.1	-1.8	2.0%
CC(=O)Nc1ccccc1NC(=O)C(F)(F)F	0.3	5.2	0.1	0.672	0.7	-3.8	15.4%
CCN(CC)CCN1CNC(=S)N(c2ccccc2OC)C1	5.1	5.4	0.5	0.633	2.4	1.0	u
O=C(Nc1nc(-c2ccc(F)cc2)cs1)c1cccnc1	-9.4	0.6	0.6	0.702	-6.8	4.4	-4.6%
CC1CN(C(=O)COC(=O)c2cccc(S(=O)(=O)N3CCc4ccccc43)c2)CC(C)O1 (stereo unspecified)	5.3	-1.5	1.9	0.682	2.7	2.1	-4.6%
CCOC(=O)c1cnc2c(CC)cccc2c1NCCCN1CCOCC1	-2.7	1.5	0.0	0.653	2.9	1.7	x

Rows are unselected; 2.1% or so of the library scored in one or more.
